# Compound activity from PubChem BioAssay.
# NS1 function inh = qHTS Assay for Inhibitors of Influenza NS1 Protein Function; S. cerevisiae slowed by influenza A NS1, growth recovery by OD600; Potency, µM (doses to about 46.1 µM), inactives show at the highest dose activity, positive = more growth; hit rate 0.4% among 270,000; AID 2326, 2010; active means well fitted rising curve with a large enough effect; inconclusive means small, poorly fitted or top-dose-only effect; inactive means no such curve, though single readings can be large or run the other way; note: nearly all actives have a fitted effect of over 50% in size
#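 Read-out: OD600 growth recovery of NS1-expressing budding yeast. Cells grown overnight at 30C in -URA glucose medium, washed, resuspended and diluted 1:100 in 2% galactose assay medium, pH 6.0. Same strain lacking NS1 served as positive control.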
# Cruzain inh Det = qHTS Assay for Promiscuous and Specific Inhibitors of Cruzain (with detergent) | Cruzipain (Trypanosoma cruzi), P25779 | purified cruzain, Z-FR-AMC fluorescence, 0.01% Triton | Potency, µM, for inactives: max response, negative = inhibition, hits mostly inhibitors | hit rate 0.43% among 200,000 | AID 1478, 2009;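 note: plate controls were neutral wells for no effect and buffer without enzyme for full effect; nearly all actives have a fitted effect of over 40% in size; top concentration of the series not given in the record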
# Target sequence (P25779 123-467 limits assumed): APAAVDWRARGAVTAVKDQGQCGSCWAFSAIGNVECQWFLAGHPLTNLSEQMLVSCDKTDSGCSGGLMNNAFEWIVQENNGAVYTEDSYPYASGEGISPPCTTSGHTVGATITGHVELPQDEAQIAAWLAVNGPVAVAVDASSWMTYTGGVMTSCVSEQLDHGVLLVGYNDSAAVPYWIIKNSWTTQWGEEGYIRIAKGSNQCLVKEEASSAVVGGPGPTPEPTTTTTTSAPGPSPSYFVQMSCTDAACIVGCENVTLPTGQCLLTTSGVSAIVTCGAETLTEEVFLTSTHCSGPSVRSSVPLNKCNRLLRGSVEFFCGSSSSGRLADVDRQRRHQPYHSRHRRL
#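 Read-out: AMC fluorescence (360 nm excitation, 450 nm emission), four reads over 2 min, first-to-third difference used. Conditions: cruzain 1.5 nM, Z-FR-AMC 2 uM, pH 5.5 acetate, 5 mM DTT, 0.01% Triton X-100.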
# RE007 growth inh = qHTS Assay for Inhibitors of the HIV-1 protein Vpr; hit rate 0.21% among 360,000; Potency, µM (doses to about 92.2 µM), inactives show at the highest dose activity change, negative = less growth; AID 651644, 2012; S. pombe RE007 Vpr strain, BacTiter-Glo ATP luminescence, 24 h; control for the full effect not named in the record; active = well fitted falling curve with a large enough effect; inconclusive = small, poorly fitted or top-dose-only effect; inactive = no such curve, though single readings can be large or run the other way;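 note: % is set by controls: 0 for no effect and ±100 for the full control effect; nearly all actives have a fitted effect of over 50% in size; the assay follows cell death caused by Vpr and the record does not say whether a fall means rescue or toxicity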
#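 Fission yeast RE007 carrying one integrated HIV-1 vpr copy, seeded at OD 0.01 in PMG+AL medium with 23 nL pinned compound. Grown 24 h at 30 degrees; viability read by BacTiter-Glo luminescence after 5 min.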
# SARS PLpro yeast = qHTS of Yeast-based Assay for SARS-CoV PLP | S. cerevisiae expressing SARS-CoV PLpro, growth rescue; control for the full effect not named in the record | Potency, µM (top dose mostly 32.9 µM), inactives show at the highest dose activity, positive = growth rescue | hit rate 0.19% among 330,000 | AID 485353, 2010; active means well fitted rising curve with a large enough effect; inconclusive means small, poorly fitted or top-dose-only effect; inactive means no such curve, though single readings can be large or run the other way; note: 0% is about no effect; nearly all actives have a fitted effect of over 55% in size; growth read by luminescence after 48 h
# StopGo reporter = High Throughput Screening for Foot and Mouth Disease Virus Antivirals. hit rate 1.2% among 410,000. human cells with a luciferase reporter of 2A StopGo recoding; control for the full effect not named in the record. Potency, µM (titrated, usually from 57.9 µM), without a hit: at the top dose signal change, negative = less light; active = well fitted falling curve with a large enough effect; inconclusive = small, poorly fitted or top-dose-only effect; inactive = no such curve, though single readings can be large or run the other way; tested in HEK293T cells; note: % is set by controls: 0 for no effect and ±100 for the full control effect; nearly all actives have a fitted effect of over 45% in size; luciferase light after 4 h
# Cruzain inh noDet = qHTS Assay for Promiscuous and Specific Inhibitors of Cruzain (without detergent). Potency, µM, for the others: max response, negative = inhibition, hits mostly inhibitors. hit rate 2.3% among 200,000. AID 1476, 2009. purified cruzain, Z-FR-AMC fluorescence, no detergent. Cruzipain (Trypanosoma cruzi), P25779;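 note: plate controls were enzyme without inhibitor for no effect and buffer without enzyme for full effect; nearly all actives have a fitted effect of over 40% in size; top concentration of the series not given in the record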
#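 Purified cruzain at 1.5 nM, pre-incubated 15 min with compound at room temperature in 100 mM sodium acetate pH 5.5, 5 mM DTT, 0.00005% Triton X-100. Reaction started with 2 uM Z-FR-AMC; AMC fluorescence increase over 60 s gives rate.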
# LASV entry inh = qHTS for Inhibitors of binding or entry into cells for Lassa Virus. Lassa virus pseudotype entry inhibition, cell reporter; control for the full effect not named in the record. Potency, µM (highest dose often 37.9 µM), inactives show at the highest dose activity change, negative = inhibition, hits mostly inhibitors. hit rate 1.2% among 300,000; active means well fitted inhibition curve with a large enough effect; inconclusive means small, poorly fitted or top-dose-only effect, or effect the other way; inactive means flat fitted curve, though single readings scatter; tested in HEK293 cells; note: % is set by controls: 0 for no effect and ±100 for the full control effect; nearly all actives have a fitted effect of over 50% in size; luciferase read-out
# MARV entry inh = qHTS for inhibitors of binding or entry into cells for Marburg Virus; hit rate 1.8% among 300,000; Potency, µM (top dose mostly 37.8 µM), for inactives: at the highest dose activity change, negative = inhibition, hits mostly inhibitors; Marburg virus pseudotyped entry inhibition, cell reporter; control for the full effect not named in the record; about a third of the inactives were read at about 46 µM; AID 540276, 2011; active = well fitted inhibition curve with a large enough effect; inconclusive = small, poorly fitted or top-dose-only effect, or effect the other way; inactive = flat fitted curve, though single readings scatter; tested in HEK293 cells; about a fifth of its hits are not listed in these tables; note: % is set by controls: 0 for no effect and ±100 for the full control effect; luciferase read-out
# Starred values were filed as active, the others as inactive; ? = inconclusive; . = not tested or not shown; [ ] = remark or other dose. Unless noted, calls come from the whole dose curve; as a rule, active = well fitted curve in the direction sought with a large enough effect; inconclusive = small, poorly fitted or top-dose-only effect, or another doubt; inactive = no such curve, though single readings can be large; an effect the other way counts as inactive or inconclusive. Potency is the fitted concentration of half-maximal effect.
SMILES,NS1 function inh,Cruzain inh Det,RE007 growth inh,SARS PLpro yeast,StopGo reporter,Cruzain inh noDet,LASV entry inh,MARV entry inh
O=C(O)C1C2CCC(C2)C1C(=O)NCCC1=CCCCC1 (stereo not drawn),3.7%,-0.6%,5.2%,-0.1%,-10.6%,-0.4%,-0.2%,-0.6%
CCOc1nc(C)cc(COC)c1C(N)=O,.,.,2.6%,1.0%,7.1%,.,-1.6%,16.0%[46.1 µM]
CCOc1ccc(N(CC(=O)N2CCOCC2)S(=O)(=O)c2ccc(Cl)cc2)cc1,-19.4%,.,5.3%,-7.9%,41.0%[activator],.,-17.8%[46.1 µM],-1.7%[46.1 µM]
COc1ccc(NC(=O)C2C3C=CC(C3)C2C(=O)NCc2ccccn2)c(OC)c1 (stereo not drawn),9.0%,-0.2%,11.4%,-13.7%,5.6%,3.3%,-12.5%,11.8%[46.1 µM]
Cc1ccc(OCC(=O)Nc2cccc(C(=O)OCc3cc(=O)n4cc(C)sc4n3)c2)cc1,.,0.4%,.,.,-14.8%,1.6%,1.0%[46.1 µM],.
Cc1cccc(OCC(=O)N2CCN(Cc3ccc4c(c3)OCO4)CC2)c1,-0.7%,.,-15.0%,-5.4%,-27.0%,.,-36.3%,2.8%[46.1 µM]
COc1ccc(Cn2nc(C(=O)O)c3ccccc3c2=O)cc1F,2.8%,.,10.0%,?,3.9%,.,-19.5%,8.2%[46.1 µM]
O=C(CN1C(=O)NC(c2ccccc2)(c2ccccc2)C1=O)Nc1ccc2[nH]c(=O)[nH]c2c1,1.6%,.,-6.2%,-1.3%,-10.6%,.,-0.6%,1.7%[46.1 µM]
Cc1ccc(C)c(N2CCN(C(=O)c3ccc4nsnc4c3)CC2)c1,2.6%,.,11.3%,-2.8%,6.4%,.,?,?
CCn1cc(C(=O)c2cccs2)c2ccccc21,-10.7%,-2.0%,?,-3.6%,-12.5%,5.6%,3.3%,15.8%
O=C(COC(=O)C1(c2ccccc2F)CCCC1)Nc1ncc(C(F)(F)F)cc1Cl,-16.1%,-8.9%,-6.5%,-30.5%,-25.2%,-6.5%,-3.2%,?
O=C(O)CC(NC(=O)C(c1ccccc1)c1ccccc1)c1cccc([N+](=O)[O-])c1 (stereo not drawn),5.5%,.,-7.7%,0.7%,-8.0%,.,.,.
CC(C)(CO)CNC(=O)c1ccc(OC2CCN(C(=O)C3CC3)CC2)cc1,8.9%,.,10.7%,2.2%,-2.5%,.,-0.7%[46.1 µM],4.6%[46.1 µM]
Cc1csc2c(N3CCN(C(=O)NC(C)(C)C)CC3)ncnc12,-4.1%,.,-7.9%,0.8%,-28.5%,.,-15.1%,6.9%[46.1 µM]
Cc1ccc(-n2ncc3c(=O)[nH]c(SCC(=O)N4CCC(C)CC4)nc32)cc1C,1.3%,-3.1%,-6.8%,2.8%,-5.7%,-7.3%,.,.
C/C(=N\OC(=O)c1ccccc1F)c1nccs1,-30.1%,5.3%,?,-3.3%,-7.8%,-0.4%,6.5%,2.6%
COc1ccc(NC(=O)Cn2cc(C(=O)c3ccco3)c3ccccc32)cc1,8.2%,-8.3%,5.7%,0.1%,4.9%,-4.1%,8.1%,-0.4%
CN1CCN(/N=C/c2ccc(OCc3ccccc3)cc2)CC1,-46.4%,.,-11.5%,-0.8%,26.1%,.,.,.
O=C(N/N=C/C=C/c1ccccc1[N+](=O)[O-])c1cc(-c2cccnc2)nc2ccccc12,8.3%,-3.7%,-10.5%,11.8%,-13.1%,-1.1%,2.6%,-18.4%
CCOC(=O)C1CCCN(C(=O)CCCn2nc(C)n3c(cc4sccc43)c2=O)C1 (stereo not drawn),-6.4%,-0.1%,1.6%,3.2%,-9.9%,3.3%,.,0.0%
O=C(COc1ccccc1F)Nc1ccc2nc(SCc3ccccc3)sc2c1,.,-3.8%,.,.,-1.6%,-17.8%,-14.6%[46.1 µM],?
O=S(=O)(Nc1ccc(-c2ccc3nncn3n2)cc1)c1cc(F)ccc1F,.,.,1.9%,-0.3%,-5.3%,.,6.1%,-5.1%[46.1 µM]
Cc1ccc(C(=O)NCc2ccc3c(c2)OCO3)cc1,23.8%,.,1.2%,14.4%,43.0%[activator],.,.,.
CC(C)[C@H](NC(=O)C1CCN(S(=O)(=O)c2ccccc2)CC1)C(=O)NCc1ccncc1,7.0%,.,-3.9%,2.4%,-3.7%,.,20.4%[46.1 µM],-22.7%[46.1 µM]
COC(=O)Cc1ccc(NC(=S)NN2CCOCC2)cc1,-5.4%,-0.7%,11.5%,-17.2%,7.0%,-6.2%,4.6%,?

# More structures follow.
SMILES,NS1 function inh,Cruzain inh Det,RE007 growth inh,SARS PLpro yeast,StopGo reporter,Cruzain inh noDet,LASV entry inh,MARV entry inh
CC(C)c1ccccc1NC(=O)COC(=O)/C=C/c1cccc([N+](=O)[O-])c1,-1.9%,-2.7%,4.4%,-6.6%,-13.3%,-1.5%,-3.3%,?
O=C1CSC(c2ccc(Cl)cc2)N1C1CCCCC1 (stereo not drawn),-1.7%,0.0%,18.5%,.,0.0%,4.9%,?,?
COc1ccc(CNS(=O)(=O)c2ccc3c(c2)CCN3C(=O)C2CCC2)cc1,-0.6%,.,7.5%,5.7%,-14.1%,.,.,.
Cc1nnsc1C(=O)NNC(=O)c1cccc2ccccc12,-0.3%,.,-17.9%,3.9%,27.7%,.,-24.1%[46.1 µM],?
CSc1nc(N)nc(C2CC2)n1,1.2%,.,-3.5%,1.4%,22.3%,.,-22.3%,0.0%[14.2 µM]
CCC1SC(CC)C(=O)N(CC(=O)Nc2ccc3c(c2)OCO3)C1=O (stereo not drawn),-3.5%,-3.5%,-2.1%,-5.7%,4.8%,7.9%,10.9%,-3.2%
CCCC(=O)Nc1ccccc1NC(=O)c1ccc(OCC)c(OCC)c1,4.7%,.,-12.4%,0.6%,-11.0%,.,0.1%,9.7%[46.1 µM]
CC(OC(=O)c1c2c(nc3ccccc13)/C(=C\c1ccc3c(c1)OCO3)CCC2)C(=O)Nc1ccc(S(N)(=O)=O)cc1 (stereo not drawn),11.2µM*,-0.2%,.,19.9%,30.5%[activator],15.8µM*,?,?
CN(C(=O)CSc1nnc2[nH]c(=O)cc(-c3ccccc3)n12)c1ccccc1,.,1.1%,.,.,28.1%,4.1%,-1.4%[46.1 µM],.
O=C(Nc1cccc(S(=O)(=O)N2CCCCC2)c1)C1CC(=O)N(c2ccc3c(c2)OCCO3)C1 (stereo not drawn),16.5%,.,6.4%,3.0%,?,.,.,.
COC(=O)C1=C(c2ccc(F)cc2OCc2ccccc2)C[C@@H]2CC[C@H]1N2C(=O)NCc1ccc(Br)cc1,.,.,5.5%,-2.9%,-22.9%,.,.,-4.9%
O=c1[nH]c(/C(Cl)=C/c2cccc(C(F)(F)F)c2)nc2cc(Cl)ccc12,5.8%,-2.8%,1.0%,?,11.7%,3.16µM*,10.4%,0.2%
CCCSc1nc(=S)n(Cc2ccccc2)c(C)c1C(C)=O,.,.,1.4%,0.6%,-26.4%,.,-9.2%[46.1 µM],11.1%[46.1 µM]
COCCNc1cc(-c2ccccc2)nc2cc(-c3cccc(F)c3)nn12,-3.2%,.,-1.8%,-10.1%,-15.0%,.,-7.9%[46.1 µM],?
O=[N+]([O-])c1ccccc1S(=O)(=O)Oc1ccc(/C=N/n2cnnc2)cc1,6.4%,-3.5%,5.7%,8.9%,-13.9%,6.2%,?,-24.4%
CCOC(=O)CSc1nnc(Cn2c(=O)sc3ccccc32)n1-c1ccccc1C,-2.5%,-4.1%,9.9%,-9.2%,-5.1%,-1.7%,.,.
O=C(Cn1nnc(-c2ccc(Cl)cc2)n1)NCc1ccc(F)cc1,.,0.2%,.,.,3.2%,19.0%,-16.3%[46.1 µM],-6.7%[46.1 µM]
CN(C(=O)COC(=O)c1cc(=O)[nH]c2ccccc12)c1ccccc1,.,.,1.9%,-0.7%,41.7%[activator],.,1.9%,21.6%
Oc1cc(O)c(CN2CCOCC2)cc1CN1CCOCC1,.,.,-3.3%,.,-1.8%,.,16.0%,?
CC(NC(=O)CCC(=O)NC(C)C1COc2ccccc2O1)C1COc2ccccc2O1 (stereo not drawn),-12.6%,2.8%,3.4%,4.9%,?,?,-12.5%,-8.0%
COc1cc(NC(=O)c2cc3nc(C4CC4)cc(C(F)(F)F)n3n2)c(OC)cc1Cl,-1.0%,-1.3%,8.4%,-10.1%,23.9%,?,.,0.0%
Cc1onc(-c2ccccc2)c1C(=O)N/N=C/C=C/c1ccccc1,0.1%,.,-18.9%,-1.6%,1.9%,.,-0.5%[46.1 µM],3.7%[46.1 µM]
COc1ccc(CCC(=O)NNC(=O)c2ccc(OC)cc2)cc1,-7.4%,.,-21.0%,1.6%,6.8%,.,10.8%[46.1 µM],?
COc1ccc(-c2[nH]ncc2CN(C)CC2CCCCO2)cc1F (stereo not drawn),2.0%,.,4.7%,-0.1%,-19.3%,.,.,.
CCC(=O)Nc1ccc2c(c1)nc(CN1CCN(C(C)=O)CC1)n2C,1.4%,0.3%,4.1%,-3.5%,-4.1%,2.0%,4.7%,-1.6%[46.1 µM]
CC(C)N(CC(N)=O)c1ncnc2sc(-c3ccccc3)cc12,-3.1%,.,20.5%,-4.1%,0.0%,.,?,?
CCN(CC)c1ccc(NC(=O)C2COc3ccc(OC)cc3C2)c(C)c1 (stereo not drawn),.,2.1%,.,.,?,18.8%,?,.
CC1CCCN(S(=O)(=O)c2ccc(C(=O)Nc3nnc(-c4ccccc4Cl)o3)cc2)C1 (stereo not drawn),-7.1%,5.8%,-0.6%,-14.9%,-12.9%,-0.4%,?,?
O=C(NN1C(=O)C2C3C=CC(C4CC34)C2C1=O)c1ccc(Cl)c(Cl)c1 (stereo not drawn),3.8%,-5.5%,6.9%,25.7%,0.0%,-7.4%,-3.3%,?
